# T cruzi inh: inhibitors of intracellular T. cruzi growth, primary screen, luminescence, NIH3T3 host cells; AID 1885, 2009; T. cruzi beta-gal in NIH3T3, 90 h; 300,000 tested, 1.4% active; inhibition, % (no concentration beside the values);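 active = mean inhibition across valid replicates above about 55%, limit read from the data; inconclusive = mean below that limit but half or more replicates reach it; inactive = mean below it, under half of replicates reach it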;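 also: signal also drops with host cell toxicity which is not excluded here; 0% = plate median of DMSO wells and 100% = zero luminescence signal; higher percent means less beta-gal luminescence so fewer parasites; stock transfer was 50 nL into about 50 µL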
# Bfl-1 A1 inh: caspase 3/7 activation in MEF A1-2A-BIM cells, primary screen, A1 inhibitor project, cell-based, luminescence, HTS; Caspase-Glo 3/7 luminescence, 3 h; percent of clofoctol response, vehicle zero; caspase activation, % (concentration not given with the values); 330,000 tested, 0.066% active; AID 2462, 2010;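 active = over half of replicate activation scores above 10%, or exactly half above 10 with the replicate mean above 10; inconclusive = replicate mean below 10 yet half the replicates above 10; inactive = over half of replicates below 10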;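 also: wells of about 30 µL received 50 nL stock; many hits fall short of the cut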
# LANA-H2B inh: blockers of LANA interaction with H2A/H2B – biochemical, FP readout, HTS, primary screen; cell-free LANA-H2A/H2B peptide, fluorescence polarization; inhibition, % (concentration not given with the values); 320,000 tested, 0.6% active; AID 2629, 2010; in the data active = inhibition mostly above about 10%, no sharp cut-off; inactive = mostly below about 6.7%;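 also: stock transfer was 7.5 nL into about 10 µL; 0% = median of vehicle wells and 100% = median of positive control wells; one replicate is shown; the record names a cut of 25% in any replicate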
# Beta cell apopt: inhibitors of cytokine-induced beta cell apoptosis, primary screen, luminescence. INS-1E cytokine-induced death, ATP luminescence, 48 h; percent of positive-control rescue, neutral wells zero. protection from apoptosis, % (test concentration not listed). 300,000 tested, 0.8% active. AID 435005, 2010;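 active = all replicates at 75% or more, or half of them and the mean; inconclusive = half reach 75% but not the mean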;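 also: 0% = cytokine-treated negative control wells and 100% = positive control rescue; higher means more ATP so stronger rescue from cytokine killing; wells of about 40 µL received 100 nL stock; the first replicate is given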
# Calb FLC: C. albicans growth inhibition with fluconazole, primary screen, CaCi-2 strain, Alamar Blue fluorescence. C. albicans CaCi-2 (fluconazole-resistant clinical isolate) + fluconazole, 48 h. growth inhibition, % (test concentration not listed). 300,000 tested, 0.57% active;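 active = most replicates above 75%; inconclusive = exactly half above 75%; inactive = most below 75%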;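 also: all wells also contain fluconazole at 8 µg/ml as a sub-toxic cotreatment; 0% = median of DMSO wells and 100% = median of geldanamycin control wells; wells of about 8 µL received 7.5 nL stock; the first replicate is given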
# RanGTP-Imp inh: inhibitors of RanGTP-importin-beta interaction, primary screen, biochemical, FRET, CFP-Ran, YFP-importin-beta, homogeneous; Ran GTPase (GTP-bound) - importin-beta complex; cell-free CFP-Ran/YFP-importin-beta FRET ratio; inhibition, % (test concentration not listed); 300,000 tested, 1.1% active; AID 2216, 2009;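 active = most replicates above 15%; inconclusive = exactly half above 15%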;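 also: 0% = DMSO wells and 100% = Ran loaded with GDP instead of GTP; wells of about 40 µL received 100 nL stock; the first replicate is given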
# MLL AF4-AF9 inh: inhibitors of AF4 peptide binding to AF9, primary screen, biochemical, AlphaScreen, biotin-AF4 peptide, FLAG-AF9, single point; 350,000 tested, 0.47% active; AID 651704, 2012; inhibition, % at 10 µM; Protein AF-9 (Homo sapiens), P42568;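 active = every replicate reaching a set inhibition limit, whatever the replicate mean, cut at about 25% in these data; inconclusive = mean inhibition reaches that limit but some replicates miss it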;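 also: 0% = plate neutral control median and 100% = total signal loss; the record names both 10 and 1 µM as test concentration; the first replicate is given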
# Target sequence (P42568 whole entry, looked up): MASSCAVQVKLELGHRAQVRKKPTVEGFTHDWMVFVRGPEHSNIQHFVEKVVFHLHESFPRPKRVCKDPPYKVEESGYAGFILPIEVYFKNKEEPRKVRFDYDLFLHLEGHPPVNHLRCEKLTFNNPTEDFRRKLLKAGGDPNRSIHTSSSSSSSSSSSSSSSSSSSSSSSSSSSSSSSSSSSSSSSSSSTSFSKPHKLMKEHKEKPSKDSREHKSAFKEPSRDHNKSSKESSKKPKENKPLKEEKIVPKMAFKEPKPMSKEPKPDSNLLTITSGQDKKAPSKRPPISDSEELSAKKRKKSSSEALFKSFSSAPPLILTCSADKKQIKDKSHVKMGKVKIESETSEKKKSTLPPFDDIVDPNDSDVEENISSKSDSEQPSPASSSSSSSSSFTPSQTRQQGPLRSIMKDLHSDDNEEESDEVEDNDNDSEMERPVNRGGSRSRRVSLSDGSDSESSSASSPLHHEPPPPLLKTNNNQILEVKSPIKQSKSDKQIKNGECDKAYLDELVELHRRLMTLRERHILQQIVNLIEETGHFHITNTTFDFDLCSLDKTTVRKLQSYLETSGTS
# Vif TR-FRET: inhibitors of Vif binding to APOBEC3G peptide, primary screen, biochemical, TR-FRET, GST-Vif 1-94, biotin-A3G peptide, dose response retest (AID 1117319). Virion infectivity factor (Human immunodeficiency virus type 1 group M subtype B (isolate …. TR-FRET GST-Vif / biotin-A3G peptide binding; higher % means a stronger effect; test concentration not given here; strong numbers were not always called active. inhibition, %, or IC50 in µM where a hit was titrated. 260,000 tested, 0.57% active;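 active = above the screen mean plus three standard deviations and confirmed in dose response; inconclusive = results disagree or hit not tested in dose response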;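 also: Vif residues 1-94 fused to GST binding biotinylated APOBEC3G peptide 110-148; 0% = full assay without inhibitor and 100% = GST in place of GST-Vif; retest series ran down from 100 µM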
# * hit, by the source's call; ? = inconclusive; . = no result given; & = joins results of further samples.
SMILES,T cruzi inh,Bfl-1 A1 inh,LANA-H2B inh,Beta cell apopt,Calb FLC,RanGTP-Imp inh,MLL AF4-AF9 inh,Vif TR-FRET
CCOC(=O)c1c(NC(=O)Cn2cnc([N+](=O)[O-])n2)sc(C)c1C,72*,0.8,2.6,-8,13,0.1,-33,10%
N/C(=N\c1nc2ccccc2o1)NC(=O)c1cccc(Br)c1,-7,0.4,-0.5,10,-7,-14,0.6,-8%
COC(=O)Cn1c(CCS(=O)(=O)c2ccc(C)cc2)nc2ccccc21,-15,0.0,1.4,-5,6,-5.1,.,-7%
CSc1ccc(S(=O)(=O)NC2CCCCCC2)cc1,-1,0.4,-5.8,1,-1,5.4,.,8%
Cc1ccc(S(=O)(=O)N2CCOC2CNC(=O)C(=O)NCc2ccccc2)cc1 (stereo not drawn),-1,0.9,1.3,-6,-4,-5.9,-20,-1%
COC(=O)C1=CN(Cc2ccc(F)cc2)C=C(C(=O)OC)C1c1cc(OC)c(OC)c(OC)c1,16,0.0,2.8,-2,-8,-0.4,-18,.
Cn1c(/C=C/c2ccc(Cl)cc2)c([N+](=O)[O-])c(=O)n(C)c1=O,26,-0.5,1.2,-5,-6,2.0,4.1,.
O=C(Cn1cnc2c(nnn2-c2ccccc2)c1=O)NCCc1ccccc1,-11,0.3,1.7,-6,16,2.1,-1.2,17%
CC1=NN(c2nc(-c3ccc(C)cc3)cs2)C(=O)C1N=Nc1cccc(C)c1 (stereo not drawn),-16,1.1,2.7,7,-5,-0.5,3.4,.
Nc1cc(=O)[nH]c(SCC(=O)NC2CCCc3ccccc32)n1 (stereo not drawn),-6,0.3,1.9,-2,-6,3.5,-2.5,27%
CCc1ccccc1N(C)S(=O)(=O)c1ccc2[nH]cc(C(=O)N3CCc4ccccc43)c(=O)c2c1,9,-1.1,0.7,-1,6,0.8,2.6,3%
CC(C)CNC(=S)NC(=O)c1csc([N+](=O)[O-])c1,6,0.6,0.2,-9,-1,0.3,-1.9,7%
COc1ccc(S(=O)(=O)N2CCOCC2)cc1NC(=O)COC(=O)c1ccc(C)s1,3,.,.,.,-1,2.1,-4.6,-5%
CC(OC(=O)CCN=C1NS(=O)(=O)c2ccccc21)C(=O)N(C)C1CCCCC1 (stereo not drawn),-7,1.2,-0.4,.,-8,-0.9,-2.1,5%
CCOC(=O)C(=CNc1cccc(C)c1C)C(=O)OCC,-5,-0.1,-2.0,.,5,?,-1.8,0%
COCc1c(C(=O)OC)nnn1-c1ccccc1,-11,-1.2,1.3,.,3,0.3,.,-2%
COc1ccc(OC)c(C2=NNC(=NCc3ccc4c(c3)OCO4)SC2)c1,32,0.8,-0.6,0,-29,-2.5,-1.2,.
O=C(Nc1ccc(F)cc1F)NC1CC1,-5,0.1,0.2,-7,-6,2.6,0.0,-1%
COc1ccc(S(=O)(=O)n2nc(C)cc2C)cc1OC,-16,-0.7,-1.7,.,7,?,-3.0,-9%
Cc1ccc(-n2ncc3c(NCc4ccc5c(c4)OCO5)ncnc32)c(C)c1,16,1.0,2.6,1,-21,3.5,.,4%&1%
COC(=O)c1ccc(SCc2ccccc2)nc1,-11,-0.4,60*,6,14,1.1,4.1,.
O=S(=O)(NCC(c1cccnc1)N1CCN(c2ccc(F)cc2)CC1)c1cc(F)ccc1F (stereo not drawn),58*,0.4,-3.2,-4,-10,?,.,8%&-3%
CCOC(=O)C1(CCCc2ccccc2)CCN(S(C)(=O)=O)CC1,-4,-0.4,3.1,-6,11,3.6,-5.0,.
CC(C)Oc1ccc(C(CCN)C2CCCCC2)cc1 (stereo not drawn),33,-0.2,-1.2,91*,3,?,5.2,-5%
COc1ccc(CNC(=O)COC(=O)c2ccc3ccccc3n2)cc1,.,0.4,0.6,-2,.,.,-3.0,.
# Remaining list, next part.
SMILES,T cruzi inh,Bfl-1 A1 inh,LANA-H2B inh,Beta cell apopt,Calb FLC,RanGTP-Imp inh,MLL AF4-AF9 inh,Vif TR-FRET
Cc1sc2ncnc(NCCCO)c2c1C,-12,-0.5,5.5,3,3,2.3,-1.6,2%
Cc1ccc(N(C(=O)c2ccc(S(=O)(=O)N(C)C)cc2)C2C=CS(=O)(=O)C2)cc1 (stereo not drawn),-23,0.2,0.3,1,-31,1.9,.,.
CCOc1ccc(C(=S)N2CCOCC2)cc1OC,-7,0.0,-0.6,-2,3,0.0,.,15%
COc1cccc(CCNC(=O)CC2C(=O)NCCN2CC(C)(C)C)c1 (stereo not drawn),-2,0.7,17*,1,-10,-2.2,0.5,-5%
Cc1cc(C)nc(/N=C(\N)N(Cc2ccccc2)Cc2ccccc2)n1,16,-1.0,-4.2,5,-1,2.7,1.3,.
CCC(=O)NCCCc1nc2ccccc2n1Cc1ccccc1F,-1,1.2,-5.9,1,11,-6.0,-0.3,8%
CCN1CCN(S(=O)(=O)c2ccc3ccccc3c2)CC1,7,.,.,.,-16,1.5,-0.1,3%
CCN(CC)C(=O)C(=O)Nc1cccc(Br)c1,-16,-2.1,3.9,-8,.,.,-2.3,-2%
Cc1ccc(/C=N/NC(=O)c2nnn(-c3nonc3N)c2CNc2ccccc2)cc1,6,0.4,2.1,0,-3,8.2,-0.3,.
O=C(Oc1ccc(C(=S)N2CCOCC2)cc1)c1ccccc1,9,0.9,-0.4,6,-8,-0.3,0.8,7%
Cc1ccc(NC(=O)COC(=O)Cn2cnc3c2c(=O)n(C)c(=O)n3C)cc1,.,2.5,1.7,0,.,.,-4.4,-8%
COc1ccc(N(C(=O)CCl)C(C(=O)NCCc2ccccc2)c2cccs2)cc1Cl (stereo not drawn),63*,3.5,.,98*,-34,-0.1,6.0,?
O=C(O)C1CCCCC1C(=O)Nc1cccc(Cl)c1Cl (stereo not drawn),1,0.1,1.0,.,5,0.5,.,7%
COc1ccc(CNC(=O)CCNS(=O)(=O)c2cccc3nsnc23)cc1,4,1.5,-0.1,.,0,-2.3,0.8,-6%
Clc1ccc(-c2ccc(SCc3ccccn3)nn2)cc1,3,-1.2,4.9,-6,37,3.2,.,68%
O=C(CCNC(=O)N1CC(=O)Nc2ccccc21)NCc1cccc(Cl)c1,-5,1.6,-5.6,0,3,2.8,2.1,-5%
Cc1csc(NC(=O)CSc2nnc(CCNC(=O)c3ccc(Cl)c(Cl)c3)n2C)n1,-3,0.3,3.1,-4,?,1.6,.,2%
Cc1ccc(-n2nc(C)c3c(C)c(CCC(=O)NCc4ccco4)c(C)nc32)cc1,35,-0.5,-0.3,2,0,3.3,-0.7,?
COc1ccccc1NC(=O)Nc1ccc(C(N)=O)cc1,-15,-3.1,3.4,0,-3,3.4,0.0,.
CCCNC(=O)c1cc(S(=O)(=O)N2CCc3ccccc32)cn1C,-4,0.0,1.5,39,-4,5.4,-8.2,.
O=C1CC(C(F)(F)C(F)(F)C(F)(F)F)=Nc2ccccc2N1,0,0.2,2.9,2,?,5.4,.,.
COC(=O)c1ccc(CNC(=O)CCC(=O)N2CCOCC2)cc1,.,-1.1,0.8,-5,.,.,-5.0,1%
O=C(Cc1ccccc1)Nc1nnc(-c2ccco2)o1,-22,-0.3,2.9,-8,31,-0.2,1.1,7%
CC(C)c1ccc(/C=C/c2[nH]c(=O)[nH]c(=O)c2[N+](=O)[O-])cc1,-14,0.3,-0.4,-1,-10,-3.3,-1.8,.
CCN1C(=O)C(C)S/C1=N\S(=O)(=O)c1ccc(F)cc1 (stereo not drawn),1,1.8,.,-6,4,-0.4,.,.
# Other records.
SMILES,T cruzi inh,Bfl-1 A1 inh,LANA-H2B inh,Beta cell apopt,Calb FLC,RanGTP-Imp inh,MLL AF4-AF9 inh,Vif TR-FRET
O=c1[nH]c2ccccc2cc1-c1noc(-c2cccnc2)n1,1,-0.3,-1.1,-2,1,?,.,-1%
C=CCSc1ncccc1C(=O)NCCc1ccc(Cl)cc1,-4,-0.3,-0.5,-7,14,4.3,-18,-3%
Clc1ccc(OCCN2CCOCC2)cc1,-3,1.8,6.3,-14,-2,-2.3,-5.4,.
N/C(=N\NS(=O)(=O)c1ccccc1C(F)(F)F)c1ccccn1,-14,0.2,-2.5,1,3,-6.0,-4.1,-1%
CCc1nnc(NC(=O)c2ccc(-c3cccc(C(F)(F)F)c3)o2)s1,-2,1.1,5.0,-7,-6,4.6,.,18%
CSCc1ccc(C(=O)NCc2ccc(C)cc2)cc1,-13,-1.1,-0.2,3,-1,-5.2,.,0%
Cn1ccnc1SCC(=O)c1c(N)n(C)c(=O)n(C)c1=O,.,-0.2,0.7,-1,.,.,-0.6,-5%
Cn1cnnc1SCC(=O)Nc1ccc(Br)cc1F,-12,-0.6,-2.8,3,37,-3.2,.,2%
CC1(C)N([O-])C(c2ccccc2)=C[N+](=O)C1(C)C,-10,0.7,3.4,-6,-4,?,.,2%
O=C(CCc1nc2ccccc2c(=O)[nH]1)OCc1nnc(-c2ccccc2)o1,-8,-0.8,0.4,.,-6,1.1,.,-1%
CNC(=O)c1c(NC(=O)CCS(=O)(=O)c2ccc(F)cc2)sc(C)c1C,-10,0.2,.,-5,8,-0.8,-1.7,.
O=C(Nc1cccc(C(F)(F)F)c1)C1(c2ccccc2)CC1,-4,0.1,-1.7,-1,6,?,.,0%
COc1cc(OC)c(NC(=O)Cn2cccc2)cc1Cl,-4,0.4,0.2,2,-16,-1.7,.,8%
CN1CCN(C(=O)C2CCC(=O)N(Cc3cccc(C(F)(F)F)c3)C2)CC1 (stereo not drawn),-8,2.0,8.6,1,7,0.3,-0.7,-3%
CCc1cc2c(=O)[nH]c(-c3ccncc3)nc2s1,-7,-0.3,6.9,-1,2,4.2,-8.0,-4%
CCN1CCN(c2nc(Nc3ccc(C)c(C)c3)nc(N)c2[N+](=O)[O-])CC1,-8,-0.7,2.4,-6,8,2.0,.,1%
O=[N+]([O-])c1ccc(C[n+]2cc(-c3ccc(Cl)c(Cl)c3)n3c2CCCCC3)cc1,20,-0.3,0.0,-5,1,2.2,.,21%
Cc1ccc(C2(C)NC(=O)N(CC(=O)N3CCN(S(=O)(=O)c4cccs4)CC3)C2=O)cc1 (stereo not drawn),-5,-0.4,0.7,1,-4,7.5,-1.9,-9%
CCOC(=O)/C(C#N)=C\c1ccc2c(c1)OCO2,-4,0.1,0.4,-2,17,0.6,.,.
COCCOC(=O)C1=C(C)NC2=C(C(=O)CC(C)(C)C2)C1c1cc2c(cc1Br)OCO2 (stereo not drawn),5,0.6,0.7,-7,4,-1.7,.,.
Cc1ccc(S(=O)(=O)NCc2nc3ccccc3[nH]2)cc1,-5,0.6,-0.1,-3,6,-3.1,4.6,9%
CC(=O)Cn1cnc2scc(-c3ccc(C)c(C)c3)c2c1=O,-11,2.3,5.2,-2,0,1.4,3.0,.

# Screening data as filed in PubChem BioAssay.
